GIV-Gai inh: inhibitors of GIV peptide binding to Galpha-i3, primary screen, biochemical, fluorescence polarization, FITC-GIV GBA peptide, rat Galphai3. Guanine nucleotide-binding protein G(i) subunit alpha-3 (Rattus norvegicus), P08753. 90 min; hits give low values; scaled: aluminum fluoride 0%, vehicle 100%. percent of control (FP), % (test concentration not listed). actives 0.42% (n = 210,000);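 active = replicate mean at 85% of control or lower, very high polarization wells dropped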;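 also: wells of about 15 µL received 100 nL stock; the first replicate is given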
Target sequence (P08753 whole entry, looked up): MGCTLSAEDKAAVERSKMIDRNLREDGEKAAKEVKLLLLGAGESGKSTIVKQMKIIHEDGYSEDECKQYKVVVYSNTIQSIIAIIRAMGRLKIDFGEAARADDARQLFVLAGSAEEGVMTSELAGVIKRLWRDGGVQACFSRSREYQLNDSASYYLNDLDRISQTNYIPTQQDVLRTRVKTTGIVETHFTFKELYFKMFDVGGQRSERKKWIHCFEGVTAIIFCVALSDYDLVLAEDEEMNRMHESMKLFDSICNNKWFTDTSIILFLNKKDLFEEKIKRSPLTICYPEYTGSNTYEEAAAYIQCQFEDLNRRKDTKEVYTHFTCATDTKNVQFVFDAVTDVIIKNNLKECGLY
HCMV UL50-53 inh: inhibitors of HCMV UL50-UL53 interaction, biochemical, HTRF. actives 0.15% (n = 190,000). normalized percent inhibition. HCMV UL50-UL53 nuclear egress complex (human cytomegalovirus). inhibition, % (test concentration not listed). AID 1918969, 2023;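 active = both replicates at 50% or more, plus weaker picks with an unusually low signal ratio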;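 also: stock transfer was 100 nL into about 20 µL; 0% = negative control wells and 100% = wells with untagged competitor protein; inactives centre near -12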
Sa growth inh: S. aureus growth inhibition at 42 and 30 °C, primary screen, LtaS inhibitor project, RN4220, two temperatures; OD600, 20 h, 42 °C; hits give low values; AID 720641, 2013; actives 0.53% (n = 170,000); relative growth, % (test concentration not listed);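 active = growth at 42 °C up to 50% and 20 or more points under that at 30 °C, or under 10% at both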;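 also: 300 nL library stock went into each well; scaled to the means of positive and negative controls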
Sa growth inh second temp: recorded beside Sa growth inh, whose call it bears; relative growth, %; measured here: growth at 30 °C;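 optical density after 20 h as mean of two plates; 100% = untreated growth and lower means inhibition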
Active calls of the source: *; . = not tested or not shown; & = joins results of further samples.

#	SMILES	HCMV UL50-53 inh	Sa growth inh second temp	GIV-Gai inh	Sa growth inh
1	COc1ccc(OCC(=O)OC2CCN(C)CC2)cc1	6.6	102.8	108.3	77.1
2	Cc1ccc(C)c(NC(=O)CSc2ncc3c(n2)-c2cc(Cl)ccc2N(Cc2ccccc2F)S3(=O)=O)c1	.	90.2	104.3	88.6
3	Cn1cc(C(=O)N2CCN(c3cccc(Cl)c3)CC2)c(=O)c2cc(S(=O)(=O)N3CCOCC3)ccc21	-20.5	90.7	102.9	86.3
4	Cc1nc(-c2ccc(S(=O)(=O)NCCCN)s2)cs1	-65.9	94.7	107.3	96.3
5	CCOC(=O)CN(Cc1ccccc1)C(C(=O)NC1CCCCC1)c1ccccc1 (configuration not stated)	7.2	98.2	101.1	76.3
6	O=C(O)CSc1nc2c(c(C(F)(F)F)n1)CCc1ccccc1-2	1.4	129.4	98.8	107.5
7	COc1ccc(C(=O)CSc2nc3cc(C)ccc3cc2C#N)cc1	-0.4	98.2	.	89.9
8	CC(Oc1cc(O)c2c(=O)cc(-c3ccccc3)oc2c1)C(=O)O (configuration not stated)	-19.2	82.3	102.4	106.4
9	CC(Nc1ccccc1)C(=O)Nc1cc(C(F)(F)F)ccc1Cl (configuration not stated)	-25.9	90.3	.	98.2
10	Cc1ccc(NC(C)c2cc(Cl)ccc2O)cc1 (configuration not stated)	-11.8	95.7	101.5	107.2
11	O=C(COC(=O)/C=C/c1ccc(F)cc1)Nc1ncccn1	-56.6	76.3	.	77.2
12	COc1ccc(C2CC(=O)C3=C(C2)Nc2ccccc2NC3c2cccc(OC)c2OC)cc1OC (configuration not stated)	-5.8	.	108.7	.
13	CCCCSc1nnc2n(CCCC)c(=O)c3sccc3n12	-35.5	.	100.3	.
14	Cc1cc(C)c(C#N)c(N)c1C#N	-18.7	75.8	109.4	84.7
15	Cc1ccc(N2C(=O)CSC23C(=O)N(CN2CCN(c4ccccc4F)CC2)c2ccccc23)cc1 (configuration not stated)	3.5	97.5	107.3	99.2
16	CCc1ccc(-c2cc(C(=O)NCc3ccco3)c3ccccc3n2)cc1	-24.2	.	102.4	.
17	CC(C)CNC1=NCCCS1	28.0	98.4	.	87.3
18	CC1(C)CC(=O)C=C(NCc2ccco2)C1	-28.1	96.3	.	80.7
19	Cc1nn(CCC#N)c2c1P(=S)(N1c3ccccc3CC1C)/C(=C1\N(C)c3ccccc3C1(C)C)C=N2 (configuration not stated)	13.0	86.1	.	121.2
20	CC(=O)NCC(c1ccc2c(c1)OCO2)N1CCN(c2ccccc2)CC1 (configuration not stated)	.	85.6	97.6	120.0
21	COc1ccc(/C=C/C(=O)NCCN2CCOCC2)cc1S(=O)(=O)N1CCCCC1	-13.9	98.6	109.2	104.7
22	Cc1csc2c(=O)sc(NC(=O)c3ccco3)nc12	32.7	89.7	103.2	118.9
23	Cc1cc(C)cc(NC(=O)c2ccccc2C(=O)O)c1	-14.7	88.5	.	110.7
24	COc1ccc(NCN2C(=O)CCC2=O)cc1	.	77.5	104.4	99.2
25	O=C(CCc1ccc(S(=O)(=O)N2CCOCC2)cc1)OCC(=O)c1ccc2c(c1)OCCO2	-24.4	88.5	.	77.7
26	CC(C)NC(=O)CN1C(=O)c2cccnc2Oc2ccccc21	.	90.9	97.2	103.3
27	Cc1ccc(Cl)cc1NC(=O)Cn1c(=O)n(Cc2ccc(Cl)cc2)c(=O)c2nccnc21	-37.1	.	101.5	.
28	COc1cc(OC)cc(C(=O)c2ccc(C(=O)NC3(c4ccccc4)CC3)cc2)c1	8.4	80.5	.	111.5
29	CCOc1cc2c(cc1CNCC(c1cccs1)N1CCN(C)CC1)OC(C)C2 (configuration not stated)	-13.9	91.7	.	92.2
30	CCCN(CCC)CCCn1cnc2c([nH]c3ccc(OC)cc32)c1=O	-4.2	85.2	106.4	86.9

Single records (already shown). Values in the order: HCMV UL50-53 inh | Sa growth inh second temp | GIV-Gai inh | Sa growth inh
COc1ccc(NCN2C(=O)CCC2=O)cc1 is listed as . | 77.5 | 104.4 | 99.2
O=C(CCc1ccc(S(=O)(=O)N2CCOCC2)cc1)OCC(=O)c1ccc2c(c1)OCCO2 is listed as -24.4 | 88.5 | . | 77.7
CCc1ccc(-c2cc(C(=O)NCc3ccco3)c3ccccc3n2)cc1 is listed as -24.2 | . | 102.4 | .
CC(C)NC(=O)CN1C(=O)c2cccnc2Oc2ccccc21 is listed as . | 90.9 | 97.2 | 103.3
Cc1ccc(Cl)cc1NC(=O)Cn1c(=O)n(Cc2ccc(Cl)cc2)c(=O)c2nccnc21 is listed as -37.1 | . | 101.5 | .

The list continues.
#	SMILES	HCMV UL50-53 inh	Sa growth inh second temp	GIV-Gai inh	Sa growth inh
31	Cc1nc(C)c(C#N)c(-c2c(Cl)cccc2Cl)c1C#N	-5.9	.	103.9	.
32	COC1(OC)CCCc2c1no[n+]2[O-]	-33.9	89.4	105.8	101.1
33	COc1ccc(CCNC(=O)CN(c2cc(C(F)(F)F)ccc2Cl)S(C)(=O)=O)cc1	-46.2	84.0	101.6	88.9
34	Cc1cc(=O)oc2cc(NS(=O)(=O)c3ccccc3)ccc12	-11.3	76.2	95.1	105.2
35	COC(=O)c1ccc(CN2CC(=O)N3CCCC3C2=O)cc1 (configuration not stated)	-3.3	.	102.7	.
36	COc1ccc(NC(=O)Cn2c(C)c3cnn(-c4ccccc4)c(=O)c3c2C)c(OC)c1	-11.3	86.4	106.0	116.0
37	NC(=O)c1c(/N=C/c2cc(Br)ccc2O)sc2c1CCC2	-8.6	95.9	.	88.9
38	CCOC(=O)N1CCC(NC(=O)c2cc(-c3ccc(F)cc3)[nH]c2C)CC1	3.0	80.5	104.6	118.5
39	CC1CN(C(C(=O)c2c[nH]c3ccccc23)c2ccccc2)CC(C)O1 (configuration not stated)	-6.0	101.1	.	94.3
40	COc1ccc(CNC(=O)c2cc3c(=O)[nH]c4ccc(C)cc4c3s2)c(OC)c1	-16.7	86.4	107.7	100.0
41	CN(Cc1ccco1)C1CCCCC1NS(=O)(=O)c1ccc(Cl)cc1 (configuration not stated)	0.0	85.8	97.6	105.7
42	CC1(CC(=O)N/N=C/c2ccc(-c3cccc(C(F)(F)F)c3)o2)OCCO1	-62.0	103.5	105.8	114.8
43	COc1ccc(C2=NN(CN3C(=O)C(=O)c4ccccc43)C(c3ccc(Br)cc3)C2)cc1 (configuration not stated)	-3.6	.	103.7	.
44	COc1ccccc1N1CCN(S(=O)(=O)c2c(C)sc3ncn(CC(=O)NCCN4CCOCC4)c(=O)c23)CC1	-34.8	88.2	99.1	91.8
45	Cc1ccc(C(C)C)c(OCc2ccc(C(=O)Nc3ccccc3C(F)(F)F)o2)c1	.	81.1	101.0	91.2
46	COc1ccccc1S(=O)(=O)Cc1ccc(C(=O)NC2CCCCC2)o1	-7.9	87.6	103.9	83.8
47	COc1cc(NC(=O)C(C)OC(=O)Cc2ccccc2)cc(OC)c1 (configuration not stated)	0.3	105.0	.	103.4
48	S=C(NC1Cc2ccccc2C1)N1CCCC1	4.7	98.3	105.8	96.6
49	COc1ccc(Cc2noc(COc3ccc(Cl)cc3)n2)cc1	-25.1	74.4	105.3	85.0
50	COC(=O)c1ccc(NC(=O)CCc2c(C)nn(-c3ccc(N4CCOCC4)nn3)c2C)cc1	.	91.9	106.9	99.0
51	O=C(NC1CCOC1=O)c1ccc(COc2ccc3ccccc3c2)o1 (configuration not stated)	.	82.6	101.5	109.5
52	COc1cccc(N2CCN(CC(=O)C34CC5CC(CC(C5)C3)C4)CC2)c1	-11.7	78.5	.	94.9
53	COc1ccc(-c2cn3c(n2)sc2cc(C(=O)Nc4ccc(C)c(C)c4)ccc23)cc1	.	103.7	106.0	104.5
54	N#CCn1ccn(-c2ccc3c(c2)OCO3)c(=O)c1=O	-24.3	85.5	99.2	103.9
55	Cc1ccccc1NC(=O)CSc1nnc(C)c2ccccc12	-21.1	.	103.0	.
56	COc1ccc(-c2nc(Cn3c(SCc4cc(C)ccc4C)nc4ccncc43)c(C)o2)cc1	.	72.5	100.5	102.4
57	CCc1ccc(CNC(=O)C2CCCN(c3nn4cc(-c5ccc(F)cc5)nc4s3)C2)cc1 (configuration not stated)	.	66.6	104.9	131.3
58	Cc1ccc(C)n1C(Cc1ccccc1)C(=O)O (configuration not stated)	14.1	104.8	.	126.9
59	Cc1ccc(OCc2nnc(SCC(=O)NC3CCCCC3)n2C(C)C)c(C)c1	.	104.5	100.0	101.4
60	Cc1ccc(Cl)cc1-n1c(=O)c2sc3ccccc3c2n(CC(=O)NC2CCCCC2)c1=O	-44.9	86.1	102.1	91.8
61	CNC(=O)c1c(NC(=O)c2ccc(S(=O)(=O)N3CCCCC3C)cc2)sc2c1CCC2 (configuration not stated)	.	93.8	97.8&102.2	85.4
62	Cc1ccc(C(=O)N2CCc3ccccc32)cc1	.	94.8	101.6	102.2
63	COc1ccc(C2c3cccn3-c3sc4c(c3CN2C(=O)Nc2cc(OC)cc(OC)c2)CCN(C)C4)cc1 (configuration not stated)	-15.7	.	108.5	.
64	COc1ccc(C2OC(=O)Cc3cc(OC)c(OC)cc32)cc1OC (configuration not stated)	-4.1	105.8	101.6	94.5
65	CCCCN(c1nc2nc(C)c(Cl)c(C)n2n1)S(=O)(=O)c1ccc(Cl)cc1	-21.8	.	102.4	.
66	CC1(C)Cc2cccc(OCc3ccc(C(=O)N4CCc5ccccc5C4)cc3)c2O1	-5.7	.	96.9	.
67	COc1cc(/C=C(\C#N)C(=O)c2ccc(O)c(O)c2)cc(I)c1O	-121.5	.	-30.6*	.
68	c1ccc(Cc2nc3sc4c(c3c3nnnn23)CCCC4)cc1	-17.3	.	101.3	.
69	COc1ccc(C2CC(=O)C=C(NCc3ccccc3)C2)cc1 (configuration not stated)	.	84.5	113.2	72.1
70	O=C(CCC(=O)Nc1ccccc1)NN=C1CCCCC1	-2.2	111.7	105.3	100.2
71	COc1cc2c(cc1OC)C(COc1cc(C)cc(C)c1)N(C(C)=O)CC2 (configuration not stated)	16.7	83.1	110.1	103.0
72	Cc1cc(=S)oc2ccccc12	-87.7	92.7	.	84.3
73	Cc1nc2cccnc2n1-c1cc(C(=O)NC(C)C(=O)N2CCCCC2)ccc1Cl (configuration not stated)	-15.6	.	112.1	.
74	CCCn1c(C(O)c2ccc(C(C)C)cc2)nc2ccccc21 (configuration not stated)	.	88.8	99.4	100.0
75	CC(C)/C=C1\CC/C(=C\c2ccc(Cl)cc2)C1=O	.	87.4	102.6	109.5
76	Cc1ccc(S(=O)(=O)Nc2ccc(Cn3cnc(-c4nc(-c5ccc(F)cc5)no4)c3)cc2)cc1Cl	-39.3	.	110.8	.
77	Fc1ccc(N2CCN(c3ncnc4[nH]ncc34)CC2)cc1	.	90.0	101.2	101.6
78	CCc1ccc(S(=O)(=O)NCCn2c(-c3ccncc3)nc3cccnc32)cc1	-17.9	.	105.8	.
79	O=C(Nc1ccc(O)c(-c2nc3ccccc3o2)c1)c1sc2ccccc2c1Cl	-12.9	107.2	110.7	110.9
80	COc1ccc(OC)c(S(=O)(=O)NCCS(=O)(=O)N2CCN(c3ccccc3)CC2)c1	.	87.7	98.4	105.2
81	COc1cccc(NC(=O)Cc2ccc3c(c2)OCCO3)c1	-1.4	89.8	.	101.9
82	CCN(CC)S(=O)(=O)c1ccc2oc(SCC3CN=C(c4ccc(OC)cc4)S3)nc2c1 (configuration not stated)	-33.9	90.6	.	95.3
83	Cc1[nH]c(C)c(Cl)c(=O)c1Cl	-33.4&-43.0	99.4&88.8	102.8	102.4&93.2
84	CCS(=O)(=O)c1ccc(-c2ccc(NC(=O)c3cccc(Br)c3)cc2)nn1	-5.8	.	109.1	.

Limited to HCMV UL50-53 inh and Sa growth inh, for four of the compounds above:
#	smiles	HCMV UL50-53 inh	Sa growth inh
79	O=C(Nc1ccc(O)c(-c2nc3ccccc3o2)c1)c1sc2ccccc2c1Cl	-12.9	110.9
80	COc1ccc(OC)c(S(=O)(=O)NCCS(=O)(=O)N2CCN(c3ccccc3)CC2)c1	.	105.2
81	COc1cccc(NC(=O)Cc2ccc3c(c2)OCCO3)c1	-1.4	101.9
82	CCN(CC)S(=O)(=O)c1ccc2oc(SCC3CN=C(c4ccc(OC)cc4)S3)nc2c1 (configuration not stated)	-33.9	95.3

Sorted by SMILES length (lowest first): some entries from above.
#	SMILES	HCMV UL50-53 inh	Sa growth inh second temp	GIV-Gai inh	Sa growth inh
48	S=C(NC1Cc2ccccc2C1)N1CCCC1	4.7	98.3	105.8	96.6
68	c1ccc(Cc2nc3sc4c(c3c3nnnn23)CCCC4)cc1	-17.3	.	101.3	.
20	CC(=O)NCC(c1ccc2c(c1)OCO2)N1CCN(c2ccccc2)CC1 (configuration not stated)	.	85.6	97.6	120.0
53	COc1ccc(-c2cn3c(n2)sc2cc(C(=O)Nc4ccc(C)c(C)c4)ccc23)cc1	.	103.7	106.0	104.5
